Cruzain inh noDet: inhibitors of Trypanosoma cruzi cruzain without detergent | P25779 | purified cruzain, Z-FR-AMC fluorescence, no detergent | Potency, µM, for the others: max response, negative = inhibition, hits mostly inhibitors | hit rate 2.3% among 200,000;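 also: plate controls were enzyme without inhibitor for no effect and buffer without enzyme for full effect; nearly all actives have a fitted effect of over 40% in size; top concentration of the series not given in the record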
Target sequence (P25779 123-467 limits assumed): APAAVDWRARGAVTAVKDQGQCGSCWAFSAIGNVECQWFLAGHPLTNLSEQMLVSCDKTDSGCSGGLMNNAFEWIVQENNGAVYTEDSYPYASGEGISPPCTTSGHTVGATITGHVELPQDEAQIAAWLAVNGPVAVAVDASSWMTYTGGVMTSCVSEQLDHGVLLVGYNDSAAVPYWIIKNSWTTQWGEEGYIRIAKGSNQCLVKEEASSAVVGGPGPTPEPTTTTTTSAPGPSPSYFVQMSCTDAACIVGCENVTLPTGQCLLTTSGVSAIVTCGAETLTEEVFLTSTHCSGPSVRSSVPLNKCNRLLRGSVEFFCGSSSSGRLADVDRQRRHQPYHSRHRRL
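Detergent-free condition (0.00005% Triton X-100) in acetate buffer pH 5.5 with DTT. 1.5 nM enzyme and compound were pre-mixed 15 min, then 2 uM Z-FR-AMC substrate added; reaction progress from fluorescence change between first and third reads (60 s).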
Cruzain Triton: cruzain (T. cruzi) inhibition with detergent; hit rate 0.43% among 200,000; P25779; Potency, µM, for the others: max response, negative = inhibition, hits mostly inhibitors; purified cruzain, Z-FR-AMC fluorescence, 0.01% Triton;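 also: plate controls were neutral wells for no effect and buffer without enzyme for full effect; nearly all actives have a fitted effect of over 40% in size; top concentration of the series not given in the record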
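Detergent-containing arm of a paired screen for aggregation-based inhibition: 0.01% Triton X-100 present. Cruzain at 1.5 nM cleaved 2 uM Z-FR-AMC at pH 5.5 with 5 mM DTT; AMC fluorescence gain over 60 s measured activity.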
2A StopGo: lowers the luciferase signal of an FMDV 2A StopGo reporter. human cells with a luciferase reporter of 2A StopGo recoding; control for the full effect not named in the record. Potency, µM (doses to about 57.9 µM), inactives show at the top dose signal change, negative = less light. hit rate 1.2% among 410,000; active = well fitted falling curve with a large enough effect; inconclusive = small, poorly fitted or top-dose-only effect; inactive = no such curve, though single readings can be large or run the other way; tested in HEK293T cells; also: nearly all actives have a fitted effect of over 45% in size; luciferase light after 4 h
The depositor's hits bear a star; ? = inconclusive; . = no result given; & = joins results of further samples; [ ] = another dose, or the depositor's remark. Unless noted, calls follow the shape of the dose curve; as a rule, active = well fitted curve in the direction sought with a large enough effect; inconclusive = small, poorly fitted or top-dose-only effect, or another doubt; inactive = no such curve, though single readings can be large; an effect the other way counts as inactive or inconclusive. Unless noted, % is scaled to controls: 0 for no effect and ±100 for the full control effect; potency is read from the fitted curve at half-maximal effect. A portion of the library. The share of hits here may be higher or lower than overall.

Preview:
SMILES | Cruzain inh noDet | Cruzain Triton | 2A StopGo
Cc1cnc(C)c(-c2ccc(O)c(CN3CCN(C=O)CC3)c2)n1 | . | . | -11.4%
COc1cc(=O)n2c(c1C(=O)N(C)Cc1nonc1C)CCN(Cc1cc(C)ccc1C)CC2 | . | . | -19.0%
FC(F)(F)c1cccc(C2=CCN(CCc3ccc4ccccc4c3)CC2)c1 | . | . | 2.3%
O=C(NCCN1CCOCC1)c1cnn(-c2nccc(-c3cc4ccccc4o3)n2)c1C1CC1 | . | . | -10.6%
COc1ccc(CN2CCOc3ccc(C(O)c4cccnc4)cc3C2)cc1 (stereo not given) | . | . | -18.4%

The whole of this part, repeating the preview:
SMILES | Cruzain inh noDet | Cruzain Triton | 2A StopGo
Cc1cnc(C)c(-c2ccc(O)c(CN3CCN(C=O)CC3)c2)n1 | . | . | -11.4%
COc1cc(=O)n2c(c1C(=O)N(C)Cc1nonc1C)CCN(Cc1cc(C)ccc1C)CC2 | . | . | -19.0%
FC(F)(F)c1cccc(C2=CCN(CCc3ccc4ccccc4c3)CC2)c1 | . | . | 2.3%
O=C(NCCN1CCOCC1)c1cnn(-c2nccc(-c3cc4ccccc4o3)n2)c1C1CC1 | . | . | -10.6%
COc1ccc(CN2CCOc3ccc(C(O)c4cccnc4)cc3C2)cc1 (stereo not given) | . | . | -18.4%
Cc1cc2c(c(-c3cnccn3)c1)OC(CNC(=O)c1ccccc1C(F)(F)F)C2 (stereo not given) | . | . | -8.8%
CC[C@H](C)[C@H](NC(=O)[C@@H]1CCCN1C(=O)[C@H](CCC(=O)O)NC(=O)[C@@H](NC(=O)[C@H](Cc1ccccc1)NC(=O)[C@@H]1CCCN1C(=O)[C@@H](N)Cc1ccc(O)cc1)C(C)C)C(=O)O | . | . | -1.1%[6.7 µM]
CCC1CN(CCNC(=O)C2CCCCN2C)Cc2cc(OC)ccc2O1 (stereo not given) | . | . | -4.1%
COc1ccc(CCNC(=O)c2cnn(-c3nccc(-c4ccco4)n3)c2C)cc1 | . | . | 39.5%[activator]
CCCCC/C=C\C/C=C\CCCCCCCC(=O)O[C@@H](CO)COC(=O)CCCCCCCCCCCCCCCCC | . | . | -13.3%[6.7 µM]
CC(C)=CCN1CCC2(CCc3ccccc32)CC1 | . | . | -6.1%
Cc1cc(C)n(Cc2cccc(C(=O)NCC3Cc4cccc(-c5ncccn5)c4O3)c2)n1 (stereo not given) | . | . | -8.0%
CN(C)C1CCc2[nH]c3ccc(NC(=O)c4ccc(F)cc4)cc3c2C1 (stereo not given) | . | . | -3.2%
CC(C)C[C@H](NC(=O)[C@H](Cc1ccccc1)NC(=O)CNC(=O)CNC(=O)[C@@H](N)Cc1ccc(O)cc1)C(=O)N[C@@H](CCCN=C(N)N)C(=O)N[C@@H](CCCCN)C(=O)N[C@@H](Cc1ccc(O)cc1)C(=O)N1CCC[C@H]1C(=O)N[C@@H](CCCCN)C(=O)O | . | . | -8.7%[6.7 µM]
CC1CN(Cc2cccn2-c2ncccn2)Cc2cc(Cl)ccc2O1 (stereo not given) | . | . | -13.8%

In the list so far, these contain a CF3 group:
SMILES | Cruzain inh noDet | Cruzain Triton | 2A StopGo
FC(F)(F)c1cccc(C2=CCN(CCc3ccc4ccccc4c3)CC2)c1 | . | . | 2.3%
Cc1cc2c(c(-c3cnccn3)c1)OC(CNC(=O)c1ccccc1C(F)(F)F)C2 (stereo not given) | . | . | -8.8%

The listing continues:
SMILES | Cruzain inh noDet | Cruzain Triton | 2A StopGo
COC(=O)C1CCN(Cc2ccc3c(c2)CN(C(=O)c2ccc(-n4cnnn4)cc2)CCO3)CC1 | . | . | 1.6%
COC(=O)[C@@H]1C[C@@H](NC(=O)c2cccc3c(C)c(C)[nH]c23)CN1Cc1cccc2ccccc12 | . | . | -2.3%
Cc1cnc(C(=O)O)c[n+]1[O-] | . | . | -4.4%
Cc1ccc(CN2CCc3nnc(C(NC(=O)c4ccoc4)C(C)C)n3CC2)cc1C (stereo not given) | . | . | 5.6%
Cc1cnc(-n2ncc(C(=O)NCCN3CCOCC3)c2C2CC2)nc1-c1cccs1 | . | . | 5.3%
Cc1nc(NCc2c(F)cccc2F)sc1-c1ccn(CCN2CCOCC2)n1 | . | . | -10.6%
COc1cc(C)c(CN2C[C@H](Sc3ccccn3)C[C@H]2C(=O)N(C)C)cc1C | . | . | 4.4%
Cc1cc(C(=O)Nc2cccc(-c3nc(CNC(=O)c4sc(C)nc4C)c(C)o3)c2)c(C)o1 | . | . | -1.2%
CCN(CCO)C(=O)c1cnn(-c2ncc3c(n2)-c2ccccc2CCC3)c1C1CC1 | . | . | 37.9%[activator]
COc1ccccc1C1CN(CC(=O)N2CCC(C(O)c3ccccn3)CC2)Cc2ccccc2O1 (stereo not given) | . | . | 1.6%
COc1ccc(-c2cccc3c2OC(CNC(=O)c2ccccc2-n2cccn2)C3)nn1 (stereo not given) | . | . | -1.7%
c1ccc(CN2CC[C@@]3(CCCNC3)C2)cc1 | -3.9% | 3.3% | -12.5%
C#CCCCCCCCCCCCc1ccco1 | 7.7% | -4.5% | -15.4%
FC(F)(F)c1ccccc1-c1nc(-n2ccnc2)c2ccccc2n1 | 9.4% | -1.4% | -7.3%
O=C1C=C2C=C[C@@H]3C[C@@]2(O1)[C@H]1CCCCN31 | 3.8%&10.6% | -2.3%&-0.2% | ?
Cc1nc2cnc(N3CCOCC3)nc2n(CCC#N)c1=O | -8.0% | -9.1% | -17.7%
O=C(O)c1ccc2[nH]cc(CCCCN3CC=C(c4ccccc4)CC3)c2c1 | -8.0% | -4.0% | 9.3%
COc1ccc(/C=C/C(=O)N2CC3C[C@@H](C2)Cn2c3cccc2=O)cc1OC | -23.9% | 0.2% | -6.1%
COc1ccc(/C(=C\C(=O)O)c2nccc3cc(OC)c(OC)cc23)cc1OC | -5.4% | -0.9% | -23.3%
Cc1cnc(CNc2ncnc3ccc(-c4ccoc4)cc23)cn1 | -16.5% | -12.2% | -1.8%
c1csc(CNc2ncncc2-c2ccc3c(c2)OCO3)c1 | 6.2% | -1.3% | -3.8%
COC(=O)[C@@H]1CC2=CC(=O)CC[C@]2(C)[C@@]23O[C@@H]2C[C@@]2(C)[C@H](CC[C@@]24CCC(=O)O4)[C@@H]13 | -5.1% | 3.1% | 4.8%
Cc1c(S(=O)(=O)O)oc2c1C(=O)C(=O)c1c-2ccc2c1CCCC2(C)C | 8.6% | 1.6% | -6.3%
CN1CCN(c2ccnc(-c3ccccc3C(F)(F)F)n2)CC1 | -1.2% | 4.2% | -13.9%
Cc1cc2nc3c(=O)[nH]c(=O)nc-3n(C)c2cc1C=O | ? | -6.8% | 15.8µM*
COCCn1c(=O)c(-c2cc(F)cc(F)c2)nc2cnc(OCc3ccccc3)nc21 | -7.0% | 0.9% | -11.5%
CO[C@]1(NC(=O)C(C(=O)O)c2ccc(O)cc2)C(=O)N2C(C(=O)O)=C(CSc3nnnn3C)COC21 (stereo not given in full) | -2.1% | -8.9% | -1.6%
CN(C)c1ncnc2ccc(-c3cccnc3)cc12 | 1.0% | -2.2% | -16.1%
NC(=O)c1ccc[n+]([C@@H]2OC(COP(=O)([O-])OP(=O)(O)OCC3OC(n4cnc5c(N)ncnc54)C(OP(=O)(O)O)C3O)C(O)C2O)c1 (stereo not given in full) | -12.6% | 5.0% | 4.8%
C=C1C(C2(C)C=CC(=O)C(C)(C)C2CC(=O)OC)CC[C@@]2(C)C(c3ccoc3)OC(=O)C3OC132 (stereo not given in full) | 5.5% | -0.5% | 5.3%
O=C(c1cccc(F)c1)N1CCC2(CC1)CCN(C(c1ccccc1)c1ccccc1)CC2 | 10.0% | -0.2% | -18.4%
COc1ccc2c(c1OC)OCC(c1ccc(OC)c(OC)c1OC)C2 (stereo not given) | 1.7% | 2.2% | -2.2%
COc1ccc(-c2nc3cnc(N4CCOCC4)nc3n(Cc3cccc(OC)c3)c2=O)cc1 | -0.3% | 2.4% | 1.3%
COc1ccc(NC(=O)N2CCCC3(CCN(S(=O)(=O)c4ccccc4)CC3)C2)cc1 | 9.9% | -0.3% | -1.5%
CCNc1ncc2nc(-c3cn(C)c4ccccc34)c(=O)n(C[C@H]3CCCO3)c2n1 | -5.1% | 2.1% | -5.1%
CC1(C)C(=O)[C@@H]2OC2[C@@]2(C)C1CC(O)[C@]1(C)C2CC[C@@]2(C)C(c3ccoc3)OC(=O)C3OC312 (stereo not given in full) | -7.0% | -5.7% | -6.3%
O=C(c1ccncc1)N1CCC2(CC1)CCN(c1ccccn1)CC2 | -6.2% | -4.8% | -26.1%
COc1ccc(C(=O)/C=C/c2ccccc2)cc1 | 2.9% | -6.2% | 12.0%
C[C@@]12CCC3C(CC[C@@H]4CC(O)CC[C@@]34C)C1CCC2O (stereo not given in full) | -5.6% | 3.9% | -0.8%
O=C(c1cnccn1)N1CCC[C@@]2(CCN(c3ccncc3)C2)C1 | -1.6% | 1.1% | -7.8%
O=C(c1cccc(F)c1)N1CCC2(CC1)CN(c1ccccc1)C2 | -1.0% | 2.1% | ?
N#CCCn1c(=O)c(-c2ccc(Cl)cc2)nc2cnc(Nc3ccccc3)nc21 | -10.3% | 1.6% | 1.1%
Cn1nnnc1SCC1=C(C(=O)O)N2C(=O)C(NC(=O)C(O)c3ccccc3)C2SC1 (stereo not given) | 26.2% | -8.5% | 2.2%
O=c1c(-c2cc(F)cc(F)c2)nc2cncnc2n1Cc1ccccc1Cl | 25.1µM* | -6.5% | -21.2%
O=C(c1cnccn1)N1CCC2(CC1)CN(c1ccncc1)C2 | -4.1% | 3.0% | 1.4%

By substructure, the entries above with a Cl atom
SMILES | Cruzain inh noDet | Cruzain Triton | 2A StopGo
CC1CN(Cc2cccn2-c2ncccn2)Cc2cc(Cl)ccc2O1 (stereo not given) | . | . | -13.8%
N#CCCn1c(=O)c(-c2ccc(Cl)cc2)nc2cnc(Nc3ccccc3)nc21 | -10.3% | 1.6% | 1.1%
O=c1c(-c2cc(F)cc(F)c2)nc2cncnc2n1Cc1ccccc1Cl | 25.1µM* | -6.5% | -21.2%

Next section.
SMILES | Cruzain inh noDet | Cruzain Triton | 2A StopGo
COCCn1c(=O)c(-c2ccc(F)cc2)nc2cncnc21 | 1.0% | -7.0% | -9.6%
COc1ccc(Oc2ncc3nc(C)c(=O)n(CCc4ccccc4)c3n2)cc1 | 2.3% | -1.0% | -12.2%
CS(=O)(=O)Nc1cccc(-c2cncnc2-n2ccnc2)c1 | -8.7% | 1.2% | -6.8%
CCCOc1ccc2[nH]cc(C3=CCNCC3)c2n1 | 12.7% | 4.8% | -23.3%
O=C(c1cnccn1)N1CCC2(CC1)CCN(c1ccccc1)CC2 | -3.6% | -0.6% | -17.5%
CC(=O)OCC1=C(C(=O)O)N2C(=O)C(NC(=O)CCCC(N)C(=O)O)C2SC1 (stereo not given) | -15.5% | -3.6% | ?
O=C(c1cnccn1)N1CCC[C@@]2(CCN(C(c3ccccc3)c3ccccc3)C2)C1 | -14.8% | 1.6% | -9.3%
CC(C)NC(=O)N1CCC2(CC1)CCN(C(=O)c1cccn1C)CC2 | 0.3% | 0.3% | 1.1%
N#Cc1ccc(CN2CCCC3(CCN(C(=O)c4cccc(F)c4)CC3)C2)cc1 | -9.3% | -1.2% | -10.9%
CCN(c1ccccc1)c1cc(NC)[n+](C)c(C)n1 | 0.5% | -5.2% | -19.1%
CN1C2CCC1CC(OC(=O)C1CCC(C(=O)OC3CC4CCC(C3)N4C)(c3ccccc3)c3ccccc31)C2 (stereo not given) | -12.5% | 4.6% | -12.5%
CN(C)c1ccc(-c2nc(NCCc3cnc[nH]3)c3ccccc3n2)cc1 | -7.8% | -8.4% | -17.6%
COc1ccc(-c2nc3cnc(N4CCNCC4)nc3n(CCC#N)c2=O)cc1 | -2.1% | 0.3% | -5.3%
CC(=O)OC1CC2C(C)(C)C(=O)CC[C@]2(C)C2CC[C@@]3(C)C(c4ccoc4)OC(=O)C4OC43[C@]12C (stereo not given in full) | 18.4% | -2.0% | -10.4%
COC(=O)N1CCC2(CCN(CC(C)C)CC2)CC1 | -11.3% | 0.5% | -4.4%
c1ccc2c(Nc3ccncc3)nc(-c3ccc4c(c3)OCO4)nc2c1 | 7.0% | -7.5% | -9.0%
COc1ncc2ncc(=O)n(C)c2n1 | -3.6% | -4.9% | -6.9%
C=CC1=C(C)C2=Cc3c(C=C)c(C)c4[n]3[Sn+2][n]3c(c(C)c(CCC(=O)O)c3=CC3=NC(=C4)C(C)=C3CCC(=O)O)=CC1=N2 | ? | -9.7% | -29.9%
CC(=O)N[C@@H](CC(C)C)C(=O)O | -3.9% | -0.7% | -7.3%
N#Cc1ccccc1OC[C@H](O)CNCCNC(=O)Nc1ccccc1 | -6.2% | -2.5% | -2.6%

Compound activity deposited in PubChem by National Center for Advancing Translational Sciences (NCATS).
